Assay outcomes deposited in PubChem by National Center for Advancing Translational Sciences (NCATS).
Menin-MLL FL inh – displaces fluorescein MLL peptide from human menin. FP activity change, % at 61.4 µM. 290,000 tested, under 10 active. Fluorescence polarization, fluorescein-MLL peptide displacement from menin; inconclusive = falling polarisation curve, or a change in total fluorescence; inactive = total fluorescence flat and polarisation flat or rising; no compound was filed as active; the % refers to the polarisation; negative = inhibition;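 also: % of control where 0% means no effect; inhibitors lower the polarisation; unlabelled MLL peptide was the positive control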
gsp ag – gsp mutant agonism. AID 624287. gsp mutant cells, cAMP HTRF, 30 min; control for the full effect not named in the record. 340,000 compounds, 0.13% hits. Potency, µM (top dose mostly 76.9 µM), without a hit: at the highest dose activation (cAMP increase), most hits filed as activators; active = well fitted activation curve with a large enough effect; inconclusive = small, poorly fitted or top-dose-only effect, or another doubt; inactive = no such curve, though single readings can be large or run the other way; cell line not stated here;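 also: phosphodiesterase inhibitor Ro 20-1724 added with compounds to block cAMP breakdown; potency is read from the fitted curve at half-maximal effect; nearly all actives have a fitted effect of over 60% in size; about a fifth of the inactives were tested at one dose only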
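Cells stably selected in G418 were plated at 2000/well, grown 16-24 hr, then given compounds in DMSO with the PDE inhibitor […] (300 uM solution added) for 30 min at 37C; cAMP was read by HTRF.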
Sfp inh – inhibitors of Bacillus subtilis Sfp phosphopantetheinyl transferase; Biochemical Sfp PPTase activity, qHTS; Potency, µM, inactives show max response, negative = inhibition, hits mostly inhibitors; 310,000 compounds, 3.5% hits; AID 1490; active = well fitted inhibition curve with a large enough effect; inconclusive = small, poorly fitted or top-dose-only effect, or another doubt; inactive = no such curve, though single readings can be large or run the other way;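 also: the enzyme is Sfp with the accession as filed and its product quenches rhodamine fluorescence; potency is read from the fitted curve at half-maximal effect; 0% = enzyme reaction without inhibitor and -100% = no enzyme wells; top concentration of the series not given in the record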
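Reaction rates are the 30-min fluorescence difference (ex 525, em 598 nm) in wells containing 15 nM Sfp, 5 uM rhodamine-CoA and 12.5 uM BHQ-2-YbbR at pH 7.6 with 10 mM MgCl2.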
ClpP mod – qHTS Assay for Activators of ClpP; purified B. subtilis ClpP, FRET peptide cleavage, 20 min; Potency, µM (highest dose often 57.5 µM), for inactives: at the top dose activity change, negative = active; 340,000 compounds, 1.9% hits; AID 651965, 2013; active = well fitted falling curve with a large enough effect; inconclusive = small, poorly fitted or top-dose-only effect; inactive = no such curve, though single readings can be large or run the other way; also: potency is read from the fitted curve at half-maximal effect; the source files actives as falling curves though it sought activators and does not explain the sign; nearly all actives have a fitted effect of over 65% in size; many hits overshoot -100%
Target sequence (P80244 whole entry, looked up): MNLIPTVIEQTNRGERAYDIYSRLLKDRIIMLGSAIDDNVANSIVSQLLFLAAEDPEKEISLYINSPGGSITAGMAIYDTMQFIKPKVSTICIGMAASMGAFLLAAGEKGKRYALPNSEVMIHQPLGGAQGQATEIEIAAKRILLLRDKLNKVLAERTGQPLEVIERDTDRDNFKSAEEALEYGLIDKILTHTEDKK
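Buffer: 100 mM Tris/HCl pH8, 100 mM KCl, 0.05% low protease BSA, 2.5% glycerol, 0.01% Tween-20. ClpP 10 microg/mL final; 20 min RT; delta FRET normalized to ADEP and DMSO controls.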
TRPML1 inh – human mucolipin-1 channel inhibition. 390,000 compounds, 0.02% hits. activity change, negative = inhibition, % (concentration not given with the values). TRPML1-inducible cells, Ca2+ dye fluorescence, FDSS; active compounds read low; inhibition of EC80 agonist-evoked calcium signal. Q9GZU1; in the data active means activity change below about -50%; inconclusive means about -30% to -50%; inactive means above about -30%;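 also: stimulus is agonist 54-4 at its EC80 concentration; % is scaled to controls: 0 for no effect and ±100 for the full control effect; the text of the record puts the active cut at -80%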
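Calcium fluorescence in TRPML1-DL cells induced overnight with Tet: a 110 s read after compound pin addition, then a 110 s antagonist read after challenge with 54-4 at 4 uM final (EC80).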
gsp antagonist – gsp mutant antagonism. AID 624288. gsp-mutant cells, cAMP HTRF, 30 min; control for the full effect not named in the record. 340,000 compounds, 0.4% hits. Potency, µM (titrated, usually from 76.9 µM), inactives show at the top dose activity change, negative = inhibition, actives largely listed as inhibitors; active = falling curve of any shape with a large fitted effect; inconclusive = falling curve, mostly with a smaller effect; inactive = flat or rising curve; cell line not stated here;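 also: intracellular cAMP measured with PDE inhibitor Ro 20-1724 present during compound exposure; potency is read from the fitted curve at half-maximal effect; % is scaled to controls: 0 for no effect and ±100 for the full control effect; nearly all actives have a fitted effect of over 65% in size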
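HTRF cAMP measurement after 30 min RT detection following 30 min, 37C compound treatment alongside […] (added as 300 uM solution) in G418-selected cells seeded at 2000/well and grown 16–24 h.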
TRPV1 potentiator – potentiators of human vanilloid receptor 1 (TRPV1) | TRPV1-expressing cells, Fluo-8 calcium influx, capsaicin EC20 potentiation; host cell line not named in the record; control for the full effect not named in the record | potentiation, % at 8.33 µM | 320,000 compounds, 0.02% hits | AID 540277; active means potentiation above 80%; inconclusive means 30% to 80%; inactive means below 30%; also: 0% is about no effect
Target sequence (Q8NER1 whole entry, looked up): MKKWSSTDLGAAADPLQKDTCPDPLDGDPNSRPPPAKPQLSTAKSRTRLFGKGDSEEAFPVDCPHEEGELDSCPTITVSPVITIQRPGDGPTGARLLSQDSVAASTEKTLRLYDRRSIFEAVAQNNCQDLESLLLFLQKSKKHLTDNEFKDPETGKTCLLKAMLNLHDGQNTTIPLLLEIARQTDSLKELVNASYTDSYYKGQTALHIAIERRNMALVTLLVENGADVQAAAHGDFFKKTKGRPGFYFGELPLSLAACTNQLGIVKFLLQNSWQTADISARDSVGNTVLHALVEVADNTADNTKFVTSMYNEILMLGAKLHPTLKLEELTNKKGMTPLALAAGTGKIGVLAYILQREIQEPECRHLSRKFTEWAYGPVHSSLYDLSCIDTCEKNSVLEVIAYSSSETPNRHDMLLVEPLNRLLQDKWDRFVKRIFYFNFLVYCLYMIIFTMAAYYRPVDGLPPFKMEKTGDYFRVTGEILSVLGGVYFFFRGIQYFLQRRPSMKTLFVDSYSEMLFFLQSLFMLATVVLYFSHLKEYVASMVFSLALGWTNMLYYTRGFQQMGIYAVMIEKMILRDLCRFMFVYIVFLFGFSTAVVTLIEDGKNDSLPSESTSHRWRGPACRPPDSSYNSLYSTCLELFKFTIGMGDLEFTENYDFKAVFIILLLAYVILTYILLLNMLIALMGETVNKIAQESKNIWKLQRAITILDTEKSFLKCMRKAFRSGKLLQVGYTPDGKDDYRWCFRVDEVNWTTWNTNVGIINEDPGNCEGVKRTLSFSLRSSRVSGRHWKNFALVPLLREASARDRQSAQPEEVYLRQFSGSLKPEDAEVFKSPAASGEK
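Cells expressing TRPV1 were dye-loaded with Fluo-8 and read kinetically: 10 s baseline, 3 min after compound (agonist portion), then 2 min after EC20 capsaicin (allosteric enhancer portion). Calcium-bound dye fluorescence at 480/520 nm.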
Active calls of the source: *; ? = inconclusive; nt = no result given; & = joins results of further samples; [ ] = another dose, or the depositor's remark.

molecule	Menin-MLL FL inh	gsp ag	Sfp inh	ClpP mod	TRPML1 inh	gsp antagonist	TRPV1 potentiator
CCCN(c1ccccc1C(=O)O)S(=O)(=O)c1ccc2c(c1)n(C)c(=O)n2C	-9.2	?	7.6%	-1.4%	4.7	13.5%	1.9
Cc1ccc(CNC(=O)COC(=O)COc2ccc(C#N)cc2)cc1	nt	-68.1%[inhibitor]	nt	0.7%	-22.6	-13.8%	0.7
COc1ccc(CC2C(=O)NC(C)C(=O)N(C)C3Cc4ccc(cc4)Oc4cc(ccc4O)CC(C(=O)NC(C)C(=O)NC(C)C(=O)N2C)N(C)C3=O)cc1 (stereo not given)	nt	11.6%	nt	-1.0%	-7.3	-4.0%	nt
CCOc1ccc2nc(N/C(N)=N/C(=S)Nc3ccc(C)c(C)c3)nc(C)c2c1	2.0	3.1%[15.4 µM]	-3.3%	25.1µM*	-18.9	?	6.0
CCOC(=O)N1CCN(C(=O)c2c[nH]c3ccc(S(=O)(=O)N(C)c4cccc(C)c4)cc3c2=O)CC1	-4.7	-14.9%	5.1%	3.7%	14.0	9.2%	2.2
CCOC(=O)c1sc(=S)n(-c2cccc(C(F)(F)F)c2)c1SC	3.3	10.4%	-16.9%	-6.4%	26.4	-18.6%	-9.8
C/C(=N\N1CCN(C2c3ccccc3-c3ccccc32)CC1)c1ccco1	0.4	-67.8%	7.6%	-1.5%	-11.4	-19.9%	4.5
Oc1c(Cl)cc(Cl)cc1CNc1ccc(Br)cn1	4.3	-2.7%	4.0%	-1.5%	-7.2	?	3.4
CCOC(=O)c1sc(N(Cc2ccccc2)C(=O)COC(=O)c2ccccc2O)nc1C	-1.6	-26.5%	-17.2%	-7.0%	0.3	6.2%	-2.0
C[C@]12C=CC(=O)C=C1CC[C@@H]1C2=CC[C@]2(C)[C@@H](C(=O)CN3CCN(c4cc(N5CCCC5)nc(N5CCCC5)n4)CC3)CC[C@@H]12	nt	nt	nt	-4.2%	-10.2	-9.0%	nt
CC(C)OCCCNC(=O)CN1C(=O)COc2ccc(S(=O)(=O)N3CCCCCC3)cc21	-2.9	-2.7%	9.0%	2.9%&-1.7%	8.6&-10.9	5.9%	6.8
CC(C)CCSc1nc2c(c(=O)[nH]c(=O)n2C)n1CCc1ccccc1	0.0	0.8%	24.4%	7.5%	3.3	7.2%	-3.4
C=CCOc1ccccc1CN1CCC(n2nccc2NC(=O)C2CC2)CC1	-7.7	-3.0%	11.3%	-2.3%	0.2	-13.5%	3.1
CCOc1ccccc1N1CCN(CC(=O)Nc2ccccc2C(=O)NC2CC2)CC1	nt	-0.5%	nt	-2.4%	-23.9	-2.2%	-1.4
Cc1cc(C)n(-c2ccc(C(=O)N3CCN(c4ccccn4)CC3)cc2)n1	nt	-18.0%	nt	-9.3%	-5.4	1.3%	7.7
Cc1ccc(-c2nn(-c3ccccc3)cc2C(=O)OCC(=O)Nc2ncc(Cl)cc2Cl)cc1	5.2	-2.0%	?	20.5%	-4.3	-14.2%	-6.7
CCCNC(=O)CCc1c(C)nc2c(c(C)nn2-c2ccccc2)c1C	-2.2	?	3.9%	3.7%	nt	-22.1%	-19.1
Cc1ccc(CNC(=O)Cn2nnc3ccccc3c2=O)cc1	-0.9	11.2%[15.4 µM]	-6.0%	-3.0%	16.0	15.4%	-0.1
Cc1ccc(S(=O)(=O)N2CCN(C(=O)COC(=O)Cc3ccc(Cl)cc3)CC2)c(C)c1	nt	-19.9%	nt	-1.0%	15.4	5.2%	-0.3
COc1ccccc1CNC(=O)CCCNC(=O)Cn1cnc2sc(C)c(C)c2c1=O	-2.1	22.7%[15.4 µM]	3.0%	-2.4%	-0.4	4.6%	19.2
CCOC(=O)N1CCN(C(=O)C2CCN(S(=O)(=O)c3ccc(Cl)cc3)CC2)CC1	3.9	-11.1%	23.2%	-0.7%	10.4	-3.1%	0.7
C=CCOc1ccc(CNC(C)(C)CO)cc1OCC	1.8	-23.2%	-5.9%	-2.0%	4.6	7.6%	6.0
CC(C)N1C(=O)/C(=C/c2nc3ccccc3c(=O)n2-c2ccccc2)c2ccccc21	-1.0	1.8%	-9.1%	-0.1%	13.5	-10.6%	-6.5
COc1ccc(/C=N/NC(=O)c2ccc(CSc3nc(C)cc(C)n3)cc2)cc1O	2.5	15.6%	-12.9%	-9.9%	-4.0	7.8%	-22.5
C=CCc1cccc(C=Nc2ccc(Br)cc2)c1O	-0.5	-30.5%[inhibitor]	-12.0%	0.7%	10.7	5.1%	-10.3
CCOc1cccc(-c2nnc3sc(-c4ccc(C)cc4)nn23)c1	1.9	nt	-6.2%	nt	nt	nt	2.3
CCOC(=O)C1=C(C)NC(SCc2cc(=O)[nH][nH]2)=C(C#N)C1c1cccs1 (stereo not given)	-2.0	-7.2%	?	-1.4%	-7.2	-9.0%	-7.1
O=C(Cc1cccs1)Nc1nnc(SCc2ccc(F)cc2)s1	2.2	19.6%	13.2%	0.5%	-0.8	2.1%	-1.4
COc1ccccc1Cn1c(=O)oc2ccccc21	nt	-4.3%	nt	3.9%	2.8	nt	nt
CCOC(=O)C1=C(Nc2ccccc2)OCC1=O	-1.1	-46.1%[inhibitor]	-4.5%	-0.1%	23.3	12.0%	4.5
COc1ccc(C(=O)NCC(C)(C)CNC(=O)c2ccc(OC)c(OC)c2)cc1OC	nt	23.7%	nt	nt	12.1	15.3%	nt
COc1ccc(S(=O)(=O)NNC(=O)C23CC4CC(CC(C4)C2)C3)cc1	nt	-20.5%	7.7%	2.0%	-5.4	1.3%	9.6
NC(=O)N\N=C/C=C/C=C/c1ccc(F)cc1	3.8	-14.0%[15.4 µM]	17.9%	0.1%	-1.1	8.0%	-2.7
Cc1ccccc1-c1ccc(=O)n(CC(=O)Nc2ccc(S(=O)(=O)N(C)C)cc2)n1	-2.4	13.4%	16.1%	nt	-3.6	-6.1%	-13.2
COc1c(F)c(F)c(C(=O)Nc2ccc(-c3nc4ccccc4[nH]3)cc2)c(F)c1F	0.7	12.6%	5.1%	5.8%	-19.3	11.8%	-1.1
COC(=O)C[C@H](NC(=O)Cn1cc(C)c(=O)[nH]c1=O)C(=O)OC	nt	nt	nt	-0.6%	-3.9	-3.9%	nt
CC(NS(=O)(=O)c1ccccc1)C(=O)NC1CCCC1 (stereo not given)	nt	10.1%	-7.1%	-0.3%	-11.1	13.3%	7.0
COc1cccc(NC(=O)c2ccc(-c3ccc([N+](=O)[O-])cc3)o2)c1	?	-12.4%	20µM*	nt	-5.0	-11.7%	4.6
CCOC(=O)C1CCCN(c2c(Nc3cc(C)cc(C)c3)c(=O)c2=O)C1 (stereo not given)	0.0	-13.5%	2.4%	1.9%	-2.4	-22.7%	-8.5
Cn1c(-n2c(CCCN3C(=O)c4ccccc4C3=O)nc3ccccc3c2=O)nc2ccccc21	1.1	19.1%	-1.0%	-2.4%	8.5	2.7%	-10.2
COC(=O)CC1(c2ccccc2)C(=O)c2ccccc2C1=O	2.0	2.1%	6.1%	-2.4%	31.6	-5.1%	-9.7
CC(=O)NC1(c2cccc(F)c2)CCN(CC(=O)NC2CCCCC2)CC1	4.1	1.9%	3.3%	0.5%	-16.2	4.8%	4.1
COc1ccc(C(=O)c2c3ccc(C(F)(F)F)cc3[n+]([O-])n2CCCN)cc1	nt	6.3%	nt	-6.3%	0.1	-5.7%	-15.9
CC(Sc1nnnn1C)C(=O)Nc1ccccc1 (stereo not given)	3.6	9.1%[15.4 µM]	12.5%	nt	-2.9	3.4%	-4.7
CCN(CC(=O)Nc1ccccc1OC)C(=O)C1CCC1	nt	-19.3%[15.4 µM]	nt	nt	23.4	5.7%	-2.2
O=C(c1cc(COc2c(F)cccc2F)on1)N1CCN(C2CCCCC2)CC1	nt	-17.3%	2.3%	-3.5%	-1.5	8.3%	-6.9
Cn1cccc1CNC(=O)Nc1ccccc1	0.2	19.6%	7.6%	-2.4%	-2.8	7.4%	-16.6
COc1ccc(S(=O)(=O)Cc2ccc(C(=O)N3CCOCC3)o2)cc1	1.1	12.6%	2.6%	2.2%	2.9	-1.8%	9.9
CC(C)NC(=O)COC(=O)CNC(=O)c1cc(Cl)cc([N+](=O)[O-])c1	4.6	25.4%	8.7%	-1.4%	-11.4	6.0%	7.5
COCCCNC(=O)CCCn1c(=O)c2ccccc2n(CC(=O)Nc2c(C)cccc2C)c1=O	-1.8	-9.9%	6.7%	-12.1%	-14.7	1.5%[15.4 µM]	4.7
COc1cc(C)c(C(C)C)cc1S(=O)(=O)N1CCOCC1	-0.4	-15.3%	9.1%	-0.5%	-2.7	?	-3.0
COc1cc(OC)cc(C(=O)NC(=S)N(Cc2ccccc2)C(C)C)c1	5.3	1.1%[15.4 µM]	8.2%	1.0%	7.9	-7.1%	5.9
COc1ccccc1N1C(=O)C2CC(C)=C(C)CC2C1=O (stereo not given)	3.8	-53.2%	9.8%	0.4%	-6.3	4.4%	-5.3
O=C(O)c1ccc(Br)cn1	0.2	-5.4%	?	nt	4.5	7.0%	?
